Screening results deposited in PubChem by National Center for Advancing Translational Sciences (NCATS).
2A StopGo: High Throughput Screening for Foot and Mouth Disease Virus Antivirals; human cells with a luciferase reporter of 2A StopGo recoding; control for the full effect not named in the record; Potency, µM (highest dose often 57.9 µM), for inactives: at the top dose signal change, negative = less light; 410,000 compounds, 1.2% hits; active = well fitted falling curve with a large enough effect; inconclusive = small, poorly fitted or top-dose-only effect; inactive = no such curve, though single readings can be large or run the other way; tested in HEK293T cells; also: % is scaled to controls: 0 for no effect and ±100 for the full control effect; nearly all actives have a fitted effect of over 45% in size; luciferase light after 4 h
MARV entry inh: qHTS for inhibitors of binding or entry into cells for Marburg Virus | Marburg virus pseudotyped entry inhibition, cell reporter; control for the full effect not named in the record; about a third of the inactives were read at about 46 µM | Potency, µM (top dose mostly 37.8 µM), for inactives: top-dose activity change, negative = inhibition, hits mostly inhibitors | 300,000 compounds, 1.8% hits; active = well fitted inhibition curve with a large enough effect; inconclusive = small, poorly fitted or top-dose-only effect, or effect the other way; inactive = flat fitted curve, though single readings scatter; tested in HEK293 cells; about a fifth of its hits are not listed in these tables; also: % is scaled to controls: 0 for no effect and ±100 for the full control effect; luciferase read-out
RE007 growth inh: qHTS Assay for Inhibitors of the HIV-1 protein Vpr; 360,000 compounds, 0.21% hits; Potency, µM (top dose mostly 92.2 µM), for the others: at the highest dose activity change, negative = less growth; S. pombe RE007 Vpr strain, BacTiter-Glo ATP luminescence, 24 h; control for the full effect not named in the record; AID 651644, 2012; active = well fitted falling curve with a large enough effect; inconclusive = small, poorly fitted or top-dose-only effect; inactive = no such curve, though single readings can be large or run the other way;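 also: % is scaled to controls: 0 for no effect and ±100 for the full control effect; nearly all actives have a fitted effect of over 50% in size; the assay follows cell death caused by Vpr and the record does not say whether a fall means rescue or toxicity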
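Fission yeast strain RE007, carrying one chromosomally integrated HIV-1 vpr copy, was seeded at OD 0.01 in PMG+AL medium with 23 nL pinned compound. After 24 h at 30 °C and 99% humidity, viability was read by BacTiter-Glo luminescence.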
SARS PLpro yeast: qHTS of Yeast-based Assay for SARS-CoV PLP; S. cerevisiae expressing SARS-CoV PLpro, growth rescue; control for the full effect not named in the record; Potency, µM (series often up to 32.9 µM), for the others: at the top dose activity, positive = growth rescue; 330,000 compounds, 0.19% hits; active means well fitted rising curve with a large enough effect; inconclusive means small, poorly fitted or top-dose-only effect; inactive means no such curve, though single readings can be large or run the other way; also: 0% is about no effect; nearly all actives have a fitted effect of over 55% in size; growth read by luminescence after 48 h
Cruzain inh Det: qHTS Assay for Promiscuous and Specific Inhibitors of Cruzain (with detergent) | Cruzipain (Trypanosoma cruzi), P25779 | purified cruzain, Z-FR-AMC fluorescence, 0.01% Triton | Potency, µM, for the others: max response, negative = inhibition, usual class: inhibitors | 200,000 compounds, 0.43% hits;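 also: plate controls were neutral wells for no effect and buffer without enzyme for full effect; nearly all actives have a fitted effect of over 40% in size; top concentration of the series not given in the record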
Target sequence (P25779 123-467 limits assumed): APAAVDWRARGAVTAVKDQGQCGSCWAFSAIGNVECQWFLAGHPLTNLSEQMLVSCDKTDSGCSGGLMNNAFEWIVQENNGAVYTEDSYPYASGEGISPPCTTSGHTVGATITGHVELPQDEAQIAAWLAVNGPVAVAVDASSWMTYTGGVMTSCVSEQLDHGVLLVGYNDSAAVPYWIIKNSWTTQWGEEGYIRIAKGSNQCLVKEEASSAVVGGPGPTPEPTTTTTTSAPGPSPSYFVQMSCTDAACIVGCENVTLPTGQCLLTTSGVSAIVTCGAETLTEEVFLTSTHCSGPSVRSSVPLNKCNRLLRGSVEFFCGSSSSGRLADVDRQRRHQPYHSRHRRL
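Detergent-containing run (0.01% Triton X-100) in acetate buffer pH 5.5 with 5 mM DTT: enzyme at 1.5 nM final, 15 min compound preincubation at room temperature, then 2 uM Z-FR-AMC substrate. Activity taken as 60 s fluorescence increase at 360/450 nm.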
Cruzain inh noDet: qHTS Assay for Promiscuous and Specific Inhibitors of Cruzain (without detergent). Cruzipain (Trypanosoma cruzi), P25779. purified cruzain, Z-FR-AMC fluorescence, no detergent. Potency, µM, for inactives: max response, negative = inhibition, actives largely listed as inhibitors. 200,000 compounds, 2.3% hits;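 also: plate controls were enzyme without inhibitor for no effect and buffer without enzyme for full effect; nearly all actives have a fitted effect of over 40% in size; top concentration of the series not given in the record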
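Detergent-free condition (0.00005% Triton X-100) in acetate buffer pH 5.5 with DTT. 1.5 nM enzyme and compound were pre-mixed 15 min, then 2 uM Z-FR-AMC substrate added; reaction progress from fluorescence change between first and third reads (60 s).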
Lassa entry inh: qHTS for Inhibitors of binding or entry into cells for Lassa Virus | Lassa virus pseudotype entry inhibition, cell reporter; control for the full effect not named in the record | Potency, µM (top dose mostly 37.9 µM), for inactives: top-dose activity change, negative = inhibition, hits mostly inhibitors | 300,000 compounds, 1.2% hits; active means well fitted inhibition curve with a large enough effect; inconclusive means small, poorly fitted or top-dose-only effect, or effect the other way; inactive means flat fitted curve, though single readings scatter; tested in HEK293 cells; also: % is scaled to controls: 0 for no effect and ±100 for the full control effect; nearly all actives have a fitted effect of over 50% in size; luciferase read-out
NS1 function inh: qHTS Assay for Inhibitors of Influenza NS1 Protein Function | S. cerevisiae slowed by influenza A NS1, growth recovery by OD600 | Potency, µM (titrated, usually from 46.1 µM), for the others: at the highest dose activity, positive = more growth | 270,000 compounds, 0.4% hits; active means well fitted rising curve with a large enough effect; inconclusive means small, poorly fitted or top-dose-only effect; inactive means no such curve, though single readings can be large or run the other way; also: nearly all actives have a fitted effect of over 50% in size
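A cell-based growth assay was used: compounds that relieve NS1-induced slow growth of budding yeast raise OD600. Assay medium was yeast nitrogen base with ammonium sulphate and -URA supplement, pH 6.0, with 2% galactose.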
Numbers without * were called inactive; ? = inconclusive; . = not tested or not shown; & = joins results of further samples; [ ] = remark or other dose. Unless noted, calls follow the shape of the dose curve; as a rule, active = well fitted curve in the direction sought with a large enough effect; inconclusive = small, poorly fitted or top-dose-only effect, or another doubt; inactive = no such curve, though single readings can be large; an effect the other way counts as inactive or inconclusive. Potency is read from the fitted curve at half-maximal effect.

SMILES	2A StopGo	MARV entry inh	RE007 growth inh	SARS PLpro yeast	Cruzain inh Det	Cruzain inh noDet	Lassa entry inh	NS1 function inh
COc1ccc(CN2C(=O)N(c3ccc(C)cc3)C(=O)C2CC(=O)Nc2ccccc2)cc1OC (configuration not stated)	-15.5%	-3.5%[46.1 µM]	.	.	5.4%	12.9%	-13.8%[46.1 µM]	.
Cc1cc(C)nc(NN=C2CCCC2)n1	-23.4%	8.8%	4.6%	10.4%	1.3%	0.1%	10.9%	6.4%
CC(C)Cc1cc(C(=O)N2CCCC(C(=O)c3cc(F)ccc3F)C2)n(C)n1 (configuration not stated)	-15.9%	.	1.8%	-0.1%	.	.	.	-7.0%
CCN(CC)S(=O)(=O)c1ccc(OCCNS(C)(=O)=O)cc1	4.4%	-18.7%[14.2 µM]	-20.6%	1.2%	.	.	3.6%	.
CCc1cc(C(c2ccc(F)cc2)N2CCOCC2)c(NC(=O)c2ccccc2)s1 (configuration not stated)	?	20.3%	11.3%	-1.8%	-1.6%	-9.8%	?	-18.7%
CCOC(=O)c1cnc2c(C)cc(Cl)cc2c1N1CCN(C)CC1	-23.5%	4.3%	-13.7%	-0.6%	.	.	11.1%	-1.4%
C(=C\c1ccccn1)/c1ccncc1	0.0%	.	-10.0%	-4.1%	.	.	.	?
CCOCCn1ccc2c(OCC(=O)Nc3cc(C)cc(C)c3)cccc2c1=O	-20.0%	.	.	.	-7.3%	?	-2.9%[46.1 µM]	.
N#Cc1c(SCC(=O)O)nc(N2CCCCC2)c2c1CCCC2	-24.0%	-12.7%&-12.7%	-7.7%	-2.1%	-8.1%	8.1%	-5.0%	20.6%
COc1ccc(CCNC(=O)c2ccc3c(c2)OCO3)cc1	21.5%	?	10.5%	0.1%	.	.	?	-11.4%
Cc1cc(CN2CCC(n3nccc3NC(=O)c3ccccc3Cl)CC2)cc(C)c1O	-12.7%	.	-1.3%	1.5%	.	.	.	-2.3%
O=C(NC1(C(F)(F)F)NC(=O)N(C2CCCC2)C1=O)C1CC1 (configuration not stated)	-19.6%	9.8%	9.3%	4.1%	-0.1%	-15.9%	10.2%	0.5%
Cc1ccc2c(CC(=O)OCC(=O)Nc3ccc(Cl)cn3)coc2c1	11.4%	?	-29.6%	-17.6%	-12.8%	?	1.7%	?
COCCCNC(=S)N1CCCN(c2nc3cc(C)ccc3cc2C#N)CC1	5.7%	-15.2%	6.2%	0.0%	.	.	?	-8.7%
COc1ccc(S(=O)(=O)N=C2C=C(C)C(=O)C(C)=C2)cc1	40.5%[activator]	-1.1%	-9.7%	-0.9%	-2.6%	12.6µM*	?	3.1%
Cn1c(CNc2ccccc2)cc(=O)n(C)c1=O	-10.3%	-5.5%	1.0%	1.1%	3.6%	-11.2%	20.2%	-5.5%
Cc1cc(C(=O)COC(=O)c2ccc(N)c([N+](=O)[O-])c2)c(C)n1-c1ccc2c(c1)OCO2	-23.1%	-28.8%	-9.2%	6.3%	-2.1%	12.6µM*	-5.3%	18.7%
O=C(NCCc1ccccc1)C1CCN(S(=O)(=O)c2ccc(-c3nn[nH]n3)cc2)CC1	16.1%	19.3%	5.0%	18.6%	1.6%	11.7%	1.7%	3.5%
CCOCCn1c(CN2CCCCC2)nc2c1c(=O)n(C)c(=O)n2C	-4.1%	.	-10.9%	1.1%	.	.	.	4.8%
CCCCn1c(=NC(=O)c2cccnc2)c(C(=O)OCC)cc2c(=O)n3ccccc3nc21	-3.6%	8.5%&8.5%	-1.9%	?	-11.1%	-1.6%	2.8%	-11.2%
COC(=O)C1=CN(CC2CCCO2)C=C(C(=O)OC)C1c1cccc(O)c1 (configuration not stated)	-6.0%	15.7%[46.1 µM]	-2.9%	0.2%	.	.	?	.
CCCCOc1ccc(/C(O)=C2/C(=O)C(=O)N(CCN(C)C)C2c2ccc(O)c(OC)c2)cc1 (configuration not stated)	.	0.1%	4.3%	1.7%	1.6%	0.4%	-7.8%	2.8%
Cc1cccc(CN2CCN(CC(=O)N3CCCC3)C2=O)c1	0.0%	2.0%	32.6%	-5.6%	-1.7%	3.5%	-0.9%	0.5%
C=CCN1C(=O)CSC1=Nc1ccc(O)cc1	6.1%	-8.7%	-4.8%	4.1%	3.6%	-6.8%	-9.6%	2.0%
Oc1ccc2c(c1)C1CCCC1(N1CCOCC1)O2 (configuration not stated)	12.2%	22.1%	-8.4%	0.9%	-4.6%	-3.5%	13.5%	15.5%
CCC(=O)N1CCc2cc(S(=O)(=O)NCCC(=O)Nc3cc(C)cc(C)c3)ccc21	2.9%	3.4%	2.1%	7.3%	6.5%	-2.7%	-5.8%	2.7%
CCc1ccc(-n2ccc(=O)c(C(=O)O)n2)cc1	-1.7%	?	0.3%	-4.2%	.	.	-1.0%[46.1 µM]	3.5%
COc1ccc(/C=N/n2c(C)nc3ccccc3c2=O)cc1	37.6%[activator]	?	12.1%	-12.8%	.	.	-6.5%	-10.7%
COc1ccc(C)cc1N(C(=O)c1cccc(F)c1)c1nc2ccccc2s1	-16.0%	22.9%	-15.7%	9.2%	-7.2%	?	?	10.2%
O=C(c1cc2c(ccc3ccccc32)o1)N1CCN(c2ncc(C(F)(F)F)cc2Cl)CC1	?	-2.4%	-7.2%	2.1%	0.4%	-17.1%	17.8%	4.6%
COc1ccc2c(=O)cc(-c3cccnc3)oc2c1OC	13.9%	15.5%[46.1 µM]	4.3%	8.3%	.	.	-4.7%	-3.7%
CCn1c(SCC(=O)NC2CCCc3ccccc32)nnc1-c1ccncc1 (configuration not stated)	-22.0%	12.6%	16.2%	13.4%	-1.2%	13.0%	1.2%	-0.8%
CCOc1ccc(-n2c(SCC(=O)Nc3ccccc3C)n[nH]c2=O)cc1	-6.3%	10.9%	3.9%	-13.5%	0.5%	-1.6%	7.2%	10.8%
CCn1c(=O)c(C(=O)NCCc2ccccc2)c(O)c2ccccc21	-8.5%	-4.0%	4.2%	-3.2%	0.0%	-29.1%	-5.0%	-8.6%
Cc1cc(O)c(C(c2cccc(F)c2)N2CCC(C)CC2)c(=O)n1Cc1ccco1 (configuration not stated)	-0.1%	.	.	.	1.2%	?	12.8%[46.1 µM]	.
CCC(NC(=O)Cn1cnc2c(=O)n(C)c(=O)n(C)c21)c1ccccc1 (configuration not stated)	3.5%	-10.7%	-2.0%	2.6%	-0.9%	-7.1%	-4.9%	-1.1%
O=C(c1ccc(F)cc1)n1nc(-c2cccnc2)nc1NCc1ccccc1	0.6%	29.9%[46.1 µM]	.	.	-4.3%	-5.3%	22.5%[46.1 µM]	.
CC(C)(C)C(=O)CSc1ncnc2c1cnn2-c1ccccc1	-10.9%	?	-6.8%	-0.4%	.	.	?	-2.9%
Clc1cccc(OCCCn2ccnc2)c1	-7.7%	.	5.9%	-2.3%	.	.	.	-4.8%
O=C(COc1cccc(C(F)(F)F)c1)Nc1ccc(S(=O)(=O)N2CCCCC2)cc1	?	-27.4%[46.1 µM]	3.9%	.	.	.	?	.
Oc1c(Cl)cc(Cl)c2cccnc12	?	.	?	-21.9%	6.7%	-3.4%	.	.
COc1ccc(/C=N/NC(=O)Cn2nc([N+](=O)[O-])cc2C)c(OC)c1OC	-7.4%	.	-3.3%	-0.5%	.	.	.	2.2%
COc1ccc(S(=O)(=O)N2CCCCC2)cc1NC(=O)c1cccnc1SC	-5.0%	.	2.8%	-1.1%	.	.	.	-1.4%
CCc1nccn1S(=O)(=O)c1ccc2ccc(C)cc2c1	23.3%	?	-2.5%	-2.2%	-2.0%	-2.0%	5.4%	-0.9%
COc1ccc(N2C(=O)CC(Sc3ncn[nH]3)C2=O)c(OC)c1 (configuration not stated)	4.6%	20.2%	4.1%	-29.4%	5.9%	?	1.6%	-160.4%
O=c1c2ccccc2nc2ccc(N3CCOCC3)nn12	60.7%[activator]	?	-0.5%	0.9%	-2.7%	-5.9%	14.7%	4.5%
COc1cccc(NC(=O)c2oc3ccccc3c2NC(=O)c2ccc(F)c(F)c2)c1	?	-0.3%[46.1 µM]	.	.	-2.2%	-17.9%	22.2%[46.1 µM]	.
CC(C)NC(=O)NC(=O)COC(=O)c1cc[n+]([O-])cc1	-2.0%	13.2%[46.1 µM]	-8.4%	-2.1%	.	.	1.9%	.
COc1ccc(C2CC(c3cccs3)=NN2c2ccc(C=O)cc2)cc1 (configuration not stated)	0.0%	?	-19.8%	12.7%	-4.3%	?	?	11.2µM*
CCN(CC)CCCN(Cc1cc2cc3c(cc2[nH]c1=O)OCO3)C(=S)NCCCN(C)C	3.9%	.	-5.6%	1.9%	.	.	.	17.4%
O=C(O)CCCc1ccc2ccc3cccc4ccc1c2c34	-13.4%	-20.2%[46.1 µM]	-26.1%	-1.7%	.	.	-7.2%[46.1 µM]	-47.2%
O=C(OC(c1ccccc1)c1nccc2ccccc12)c1ccccc1 (configuration not stated)	?	?	0.3%	.	.	.	?	.
C=CCN(C(=O)c1csnn1)C(C(=O)NCc1ccc(F)cc1)c1cccs1 (configuration not stated)	-1.9%	-8.2%[46.1 µM]	5.7%	0.9%	.	.	-7.7%	9.2%
O=C(Cn1ncc2c(Cl)cccc21)NCc1cccc(Br)c1	11.3%	1.7%[46.1 µM]	.	.	-2.9%	-0.9%	-23.8%[46.1 µM]	.
CN1C(=O)C2(Nc3ccccc3-c3nc4ccccc4n32)c2ccccc21 (configuration not stated)	-23.1%	9.5%	0.2%	0.1%	0.8%	8.7%	5.5%	-37.3%
COCC(=O)OCC(=O)Nc1ccc(Cl)cc1[N+](=O)[O-]	-7.7%	?	0.2%	-3.4%	.	.	-5.9%[46.1 µM]	.
